# HSV replic up = HSV replication enhancement. AID 1956. 220,000 tested, 0.005% active. maximum fold increase. HSV replication augmentation in cells, fold increase;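 active = peak rise of 1.5-fold or more in the series; tested in PC3 cells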;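 note: first round at 10 µM; read as green reporter fluorescence; hits show the peak of a series up to 25 µM; 1 = signal of infected wells without compound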
# PKD1 inh = inhibitors of human PKD1 kinase; PKD1 kinase fluorescence polarization assay; AID 797; Q15139; 200,000 tested, 0.056% active; inhibition, %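 (about 10 µM by stock and volumes)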;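 active = inhibition of 50% or more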;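 note: controls were vehicle for no effect and a reference inhibitor for full effect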
# Target sequence (Q15139 whole entry, looked up): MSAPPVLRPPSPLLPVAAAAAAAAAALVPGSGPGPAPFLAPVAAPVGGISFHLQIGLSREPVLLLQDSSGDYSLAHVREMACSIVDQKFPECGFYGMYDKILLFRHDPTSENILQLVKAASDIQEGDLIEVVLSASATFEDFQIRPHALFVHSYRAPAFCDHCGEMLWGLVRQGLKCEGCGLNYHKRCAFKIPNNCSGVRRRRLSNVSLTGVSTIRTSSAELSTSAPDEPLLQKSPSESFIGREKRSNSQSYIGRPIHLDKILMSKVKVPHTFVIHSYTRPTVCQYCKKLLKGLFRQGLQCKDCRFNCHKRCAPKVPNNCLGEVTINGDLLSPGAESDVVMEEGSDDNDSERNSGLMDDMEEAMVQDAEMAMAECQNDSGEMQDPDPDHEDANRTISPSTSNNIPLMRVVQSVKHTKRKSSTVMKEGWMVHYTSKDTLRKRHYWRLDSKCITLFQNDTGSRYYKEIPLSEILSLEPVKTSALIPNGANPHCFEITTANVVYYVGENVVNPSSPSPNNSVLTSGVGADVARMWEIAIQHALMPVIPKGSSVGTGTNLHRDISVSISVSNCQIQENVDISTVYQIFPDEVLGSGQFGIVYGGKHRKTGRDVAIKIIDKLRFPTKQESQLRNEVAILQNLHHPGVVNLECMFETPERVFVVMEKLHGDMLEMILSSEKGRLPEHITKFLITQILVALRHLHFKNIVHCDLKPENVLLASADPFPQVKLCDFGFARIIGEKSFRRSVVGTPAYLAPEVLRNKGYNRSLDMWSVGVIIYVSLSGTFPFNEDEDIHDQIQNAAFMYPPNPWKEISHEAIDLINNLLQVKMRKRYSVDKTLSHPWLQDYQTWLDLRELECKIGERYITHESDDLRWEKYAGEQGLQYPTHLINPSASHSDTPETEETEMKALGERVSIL
# RGS16-Gao = regulators of human RGS16-Galphao interaction. O15492+P09471. bead-based flow cytometry RGS16-Galphao binding, fluorescence; actives lie on both sides. binding response (% of control), % at 10 µM. 220,000 tested, 0.38% active;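 active = below 25% or above 175%, edge rows of some plates excepted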;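 note: Galphao activated by GDP with aluminum fluoride before binding; 100% = wells without compound and 0% = beads without RGS; some results beyond the cut were filed as inactive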
# INS promoter inh = TRM-6 insulin promoter activity inhibition | AID 1273 | inhibition, % at 2 µM | 130,000 tested, 0.9% active | TRM-6 cells (human fetal islet line), insulin promoter-eGFP reporter, imaging; reporter expression induced with tamoxifen;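 active = inhibition above the mean plus 3 SD, with well images judged a real hit on visual review, cut at about 60% in these data, passing the limit was not always enough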
# GALR2 ag = activates the human galanin receptor 2; O43603; GALR2-expressing cells, agonist activation read-out; activation, %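 (tested at 5 µM)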; 140,000 tested, 0.48% active; AID 803;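 active = above mean plus 3 SD of all compounds, about 5% in these data, not always enough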;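 note: 0% = vehicle buffer wells and 100% = reference agonist at full effect; tested in CHO reporter cells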
# INS promoter inh cell count = second read-out of INS promoter inh, no call of its own (marks repeat the call); normalized cell count, %; measured here: cell count, toxicity; reference of the scale not given here;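 cells exposed to compound for 48 h; stained nuclei by imaging scaled within each plate; lower means fewer cells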
# HSV replic up primary fold = also measured in HSV replic up; calls as there; fold increase; compound at 10 µM; measured here: primary screen fold increase 10 uM; tested in PC3 cells;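 GFP signal in the first replicate; 1 = infected wells without compound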
# Active calls of the source: *; i = inactive; . = not tested or not shown.
no.	canonical_smiles	PKD1 inh	INS promoter inh	HSV replic up	RGS16-Gao
1	Cc1c(NC(=O)c2c(N)sc3c2CCCC3)c(=O)n(-c2ccccc2)n1C	2	-28	i	73
2	COCCCNC(=O)CN(c1cc(Cl)ccc1OC)S(=O)(=O)c1ccc(C)c([N+](=O)[O-])c1	6	.	i	109
3	COc1cccc(NC(=O)c2nc3nc(C)cc(C(F)F)n3n2)c1	3	.	i	99
4	CSc1ccc(/C=N/Nc2nc(C)cc(=O)[nH]2)cc1	1	13	i	105
5	O=C(COC(=O)Cc1ccc(Cl)cc1)Nc1cc(S(=O)(=O)N2CCOCC2)ccc1N1CCCC1	-7	.	i	105
6	O=C(O)c1ccc(S(=O)(=O)c2ccc3c(c2)C(=O)N(NC(=O)c2ccncc2)C3=O)cc1	.	.	i	105
7	CC1=CC(=O)C2=C(C)CC[C@@H]3[C@H](OC(=O)[C@H]3C)[C@@H]12	.	.	i	103
8	CC(C)C(c1nnnn1Cc1ccco1)N1CCN(c2cccc(Cl)c2)CC1 (stereo not drawn)	-11	-38	.	100
9	CC1=CC(C)(C)N2C(=O)C(=Nc3ccc(O)cc3)c3cccc1c32	.	.	i	97
10	CNS(=O)(=O)c1ccc2c(c1)oc(=O)c1cc(S(=O)(=O)NC)ccc12	0	43	i	95
11	CO/N=C(\N)c1ccc([N+](=O)[O-])cc1	10	-29	i	101
12	N#C/C(=C\C=C\c1ccccc1)c1nc(-c2ccc(Cl)cc2)cs1	.	.	i	98
13	CC(/C=C/c1ccc2c(c1)OCO2)=N/NC(=O)c1ccncc1	.	.	i	104
14	COc1cc(C(=O)NCc2nnc(SCC(=O)Nc3nc4ccccc4s3)o2)cc(OC)c1OC	-10	-4	i	124
15	COc1ccc2ccccc2c1/C=N/NC(=O)CC1(C)OCCCO1	-1	-21	i	64

no.	INS promoter inh cell count	GALR2 ag	HSV replic up primary fold
1	76	.	1
2	.	.	1
3	.	-0.7	0.88
4	79	.	0.93
5	.	0.2	0.95
6	.	.	0.93
7	.	.	0.94
8	86	0.0	.
9	.	.	0.83
10	145	.	0.95
11	100	-0.2	0.99
12	.	.	1
13	.	.	0.99
14	129	-0.5	0.97
15	118	-0.4	0.87

# New compounds follow
no.	canonical_smiles	PKD1 inh	INS promoter inh	HSV replic up	RGS16-Gao
16	C/C=C(\C)C(=O)Nc1cccc(C2=NOC3(C2)C[C@H](C(N)=O)N(C(=O)C(c2ccccc2)c2ccccc2)C3)c1 (stereo partly drawn)	.	.	i	99
17	CCOC(=O)c1sc2ncnc(NCc3ccco3)c2c1C	-1	-122	i	100
18	C/C(=N\Nc1ccc([N+](=O)[O-])cc1[N+](=O)[O-])c1cc2c(ccc3ccccc32)oc1=O	4	.	i	96
19	CCN1C(=O)C(C(=O)NC(C)c2ccccc2)C2CC1(C)Oc1ccccc12 (stereo not drawn)	10	-29	i	109
20	COc1ccc(NS(=O)(=O)c2ccc3nc(COc4ccc(Cl)c(C)c4)[nH]c3c2)cc1	-2	.	i	108
21	O=C(O)c1ccc(-n2c(-c3cc(C4CC4)[nH]n3)n[nH]c2=S)cc1	.	.	i	104
22	O=C1c2ccccc2S(=O)(=O)N1CC1CC(c2ccc(Cl)cc2)=NO1 (stereo not drawn)	5	14	i	104
23	CCCc1c(CC)c(=N)c2ccccc2n1C	-6	-3	i	89
24	CCCCCn1c(SC(C)C(C)=O)nc2c1c(=O)[nH]c(=O)n2C (stereo not drawn)	2	.	i	103
25	CC(=O)c1ccc(NC(=S)Nc2ccc(Br)c(Cl)c2)cc1	-7	.	i	108
26	CCn1cc(C(=O)OCC(=O)N(C)C2CCS(=O)(=O)C2)c(=O)c2ccc(C)nc21 (stereo not drawn)	13	22	i	109
27	Cc1ccc(C)c(S(=O)(=O)NCCCN2CCOCC2)c1	-7	.	i	104
28	COc1ccc(-c2nn(-c3ccccc3)cc2C2CC(c3cccs3)=NN2C(=O)CCC(=O)O)cc1 (stereo not drawn)	.	.	i	96
29	O=C(NCC(c1ccc(F)cc1)N1CCOCC1)c1ccc(Br)o1 (stereo not drawn)	1	.	i	111
30	Cc1ccc(NC(=O)C2=NNC(=O)CC2)cc1F	.	.	i	104

no.	INS promoter inh cell count	GALR2 ag	HSV replic up primary fold
16	.	.	0.87
17	129	-1.5	0.98
18	.	.	0.88
19	90	-2.1	1
20	.	-0.3	0.99
21	.	.	0.85
22	96	-0.4	0.96
23	61	-2.4	1
24	.	-1.7	0.91
25	.	.	0.94
26	105	-1.0	0.78
27	.	.	0.92
28	.	.	0.93
29	.	-1.2	1.1
30	.	.	0.96

# Additional compounds.
no.	canonical_smiles	PKD1 inh	INS promoter inh	HSV replic up	RGS16-Gao
31	CCOC(=O)C1=C(C)NC(=O)NC1/C=C/c1ccccc1OC (stereo not drawn)	-11	3	i	62
32	CCN1CCN(C(=O)C(NS(=O)(=O)c2ccc3nc(C)sc3c2)C(C)C)CC1 (stereo not drawn)	5	.	i	109
33	CCCCN=C1N/C(=C\c2ccco2)C(=O)N1c1ccccc1	-15	.	i	104
34	COc1cccc(Cn2c(N)c(C#N)c3nc4ccccc4nc32)c1OC	-9	.	i	103
35	CN(CCO)C(=O)c1ccc(-c2nn(C)c(=O)c3ccccc23)cc1	6	.	i	106
36	O=c1cc(-c2ccccc2)oc2ccc(O)cc12	.	.	i	102
37	O=C(COC(=O)c1cccc(S(=O)(=O)NCc2ccccc2)c1)Nc1ccccc1OC(F)F	-9	-2	.	104
38	CC(C)COc1ccc(C(=O)Nc2scc(-c3ccc(Cl)cc3Cl)c2C(N)=O)cc1	-2	-177	.	99
39	Cc1ccc(NC(=O)COC(=O)CSC(=S)N2CCOCC2)cc1	-2	-58	i	100
40	O=C(COC(=O)C(Cc1ccccc1)NC(=O)c1ccc(Cl)cc1)c1ccc(Cl)cc1 (stereo not drawn)	-7	.	i	100
41	CCc1nnc(NC(=O)c2ccc(S(=O)(=O)N(CCOC)CCOC)cc2)o1	-7	.	i	103
42	O=C(CSc1nc2ccccc2[nH]1)Nc1nc(-c2ccc(Br)cc2)cs1	-1	5	i	109
43	COc1ccc(CCNc2oc(COc3ccccc3)nc2C#N)cc1	-2	.	.	105
44	COc1cc(OC)cc(C(=O)N(Cc2cc3cc(C)ccc3[nH]c2=O)C(C)C)c1	-5	.	i	109
45	Cc1ccc(N=Nc2c(N)n(-c3ccccc3)[nH]c2=O)cc1	-1	12	i	83

no.	INS promoter inh cell count	GALR2 ag	HSV replic up primary fold
31	119	.	0.92
32	.	-1.9	1
33	.	-0.8	1.1
34	.	3.9	1
35	.	.	0.96
36	.	.	0.91
37	112	-3.6	.
38	135	-1.7	.
39	133	.	0.98
40	.	-0.8	0.9
41	.	-2.8	0.9
42	101	-1.1	0.96
43	.	-0.9	.
44	.	-1.1	1
45	114	-1.8	1.1

# The results go on:
no.	canonical_smiles	PKD1 inh	INS promoter inh	HSV replic up	RGS16-Gao
46	O=C(Nc1nc2ccc([N+](=O)[O-])cc2s1)C1CCCO1 (stereo not drawn)	-5	.	i	63
47	COc1ccc(CN=C(Nc2ccccc2)SC2CC(=O)N(C)C2=O)cc1 (stereo not drawn)	-10	-25	.	101
48	Cc1[nH]c(=O)[nH]c1CN1CCCCC1	8	.	i	99
49	C/C(=N\NC(=O)CC#N)c1cc2ccc(O)cc2oc1=O	-7	11	i	98
50	Cn1c(=O)c2c(nc(SCC(=O)N3CCc4ccccc4C3)n2C)n(C)c1=O	-9	-53	i	97
51	CCOc1ccc(Cc2onc3c2C(=O)CCC3)cc1OCC	4	9	i	117
52	O=C(NNC(=O)C1CCN(S(=O)(=O)c2cccc(Cl)c2)CC1)C1CC1	.	.	i	99
53	N#CCC(CNc1ncc(C(F)(F)F)cc1Cl)OC(=O)c1cccc(C(F)(F)F)c1 (stereo not drawn)	-2	-57	i	114
54	O=C(Cn1cncn1)NCc1cccc(C(F)(F)F)c1	-8	.	i	102
55	Cc1ccc(S(=O)(=O)/C(C#N)=C/c2c(N3CCCCC3)nc3ccccn3c2=O)cc1	.	.	i	97
56	COc1ccc(Cl)cc1C(=O)NNC(=S)NC(=O)c1cc(-c2ccc(Cl)cc2)nc2ccccc12	-7	.	i	19*
57	CCN1CCN(Cc2c(O)ccc3c(=O)c(-c4ccc(OC)c(OC)c4)c(C)oc23)CC1	9	23	i	104
58	Cc1cccc(Nc2nnc(SCc3cn4ccsc4n3)s2)c1	2	23	i	99
59	Cc1cc(Oc2nnnn2-c2ccccc2)ccc1Cl	-1	-4	i	107
60	CSc1ncc(CN2CCN(C3CCN(C(C)C)CC3)C(CCO)C2)cn1 (stereo not drawn)	1	.	i	95

no.	INS promoter inh cell count	GALR2 ag	HSV replic up primary fold
46	.	.	0.98
47	62	-1.4	.
48	.	-1.2	0.88
49	118	.	1.3
50	109	-1.2	0.98
51	143	.	0.93
52	.	.	0.95
53	76	-2.7	0.68
54	.	.	1.1
55	.	.	1
56	.	-3.7	1.2
57	130	-0.5	0.89
58	85	-1.6	1.1
59	112	-1.2	0.76
60	.	.	0.91

# Next results follow:
no.	canonical_smiles	PKD1 inh	INS promoter inh	HSV replic up	RGS16-Gao
61	CC1=C(C#N)C(Nc2cc(C)ccn2)(C(F)(F)F)C(=O)N1 (stereo not drawn)	-7	22	i	105
62	CC1CC(=O)N(CC(=O)NCc2ccc3c(c2)OCO3)c2ccccc2S1 (stereo not drawn)	-10	.	.	93
63	COc1ccc(NC(=O)C23CC4CC(C2)CC(n2cnc(Br)n2)(C4)C3)cc1OC	2	-2	i	107
64	CC(C)CN1C(=O)NC(NC(=O)c2cccs2)(C(F)(F)F)C1=O (stereo not drawn)	0	.	i	103
65	CSCCC(N=Cc1c(O)n(-c2ccc(F)cc2)c(=O)[nH]c1=O)C(=O)O (stereo not drawn)	-13	8	i	108
66	O=Cc1ccc(O)c(O)c1	1	-19	i	83
67	CCOC(=O)CNc1c(-c2ccccc2)nc2ccc(Cl)cn12	-6	51	i	102
68	CC1C/C(=N\NC(=S)NCc2ccccc2)CC(C)(C)C1 (stereo not drawn)	-4	29	i	105
69	Cc1ccc2nc(SC(C)C(=O)NC3CCCc4ccccc43)[nH]c2c1 (stereo not drawn)	9	.	.	93
70	CCSc1nc2n(n1)C(c1cccc(F)c1)C1=C(CCCC1=O)N2 (stereo not drawn)	18	.	i	104
71	C[C@H]1COC2=C1C(=O)C(=O)c1c2ccc2c1CCCC2(C)C	-3	.	i	97
72	COc1cc(OC)cc(C(=O)N[C@H](C(=O)OCC(=O)Nc2sccc2C#N)C(C)C)c1	6	.	i	89
73	COc1cscc1C(=O)O	.	.	i	101
74	CCn1c(SCC(=O)NCCc2ccccc2)nnc1C(C)C	-1	47	i	18
75	CCS(=O)(=O)N1CCN(c2cccc(C)c2C)CC1	3	-11	i	100

no.	INS promoter inh cell count	GALR2 ag	HSV replic up primary fold
61	91	-2.3	0.93
62	.	0.7	.
63	55	-0.8	0.8
64	.	-0.8	0.87
65	73	-0.5	0.9
66	112	-1.4	1.1
67	94	-2.6	0.92
68	126	-2.7	1.2
69	.	-1.5	.
70	.	-0.2	1
71	.	.	1.2
72	.	.	1.2
73	.	.	0.94
74	69	.	0.95
75	57	17*	1

# Next section
no.	canonical_smiles	PKD1 inh	INS promoter inh	HSV replic up	RGS16-Gao
76	CCn1ncc(/C=N/NC(=O)c2ccc3c(c2)OCO3)c1C	1	.	i	100
77	O=C(Nc1ccon1)c1cc2c(s1)CCCC2	-5	-130	i	103
78	CC1=NN(c2ccc(Cl)cc2)C(=O)C1	-5	.	i	96
79	Cc1cccc(NC(=O)Nc2ccc(C)cc2Br)c1	-4	47	i	106
80	Nc1nc(SCc2ccccc2Cl)n[nH]1	-3	-47	i	59

no.	INS promoter inh cell count	GALR2 ag	HSV replic up primary fold
76	.	-1.3	0.96
77	98	-1.6	0.83
78	.	.	1
79	118	0.9	1.1
80	112	-1.0	1

# Screening results as filed in PubChem.
